Assay outcomes (PubChem BioAssay)
KCNQ2 enhance: potentiators of rat KCNQ2 potassium channel; hit rate 0.54% among 310,000; Potassium voltage-gated channel subfamily KQT member 2 (Rattus norvegicus), O88943; CHO-K1 KCNQ2, FluxOR thallium flux fluorescence; active compounds read high; B-score at 10 µM; AID 2239, 2010;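 active means fluorescence ratio B-score at least 3 SD of library B-scores, with initial fluorescence B-score within 3 SD, cut at about 5.3 in these data; same plate scores as AID 2156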;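 further: B-score of peak minus minimum over baseline fluorescence ratio after K+ and Tl+ stimulus; positive B-score means potentiation of KCNQ2 with more thallium influx and brighter signal; only the inactives scoring about 0 or higher are listed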
Target sequence (O88943 whole entry, looked up): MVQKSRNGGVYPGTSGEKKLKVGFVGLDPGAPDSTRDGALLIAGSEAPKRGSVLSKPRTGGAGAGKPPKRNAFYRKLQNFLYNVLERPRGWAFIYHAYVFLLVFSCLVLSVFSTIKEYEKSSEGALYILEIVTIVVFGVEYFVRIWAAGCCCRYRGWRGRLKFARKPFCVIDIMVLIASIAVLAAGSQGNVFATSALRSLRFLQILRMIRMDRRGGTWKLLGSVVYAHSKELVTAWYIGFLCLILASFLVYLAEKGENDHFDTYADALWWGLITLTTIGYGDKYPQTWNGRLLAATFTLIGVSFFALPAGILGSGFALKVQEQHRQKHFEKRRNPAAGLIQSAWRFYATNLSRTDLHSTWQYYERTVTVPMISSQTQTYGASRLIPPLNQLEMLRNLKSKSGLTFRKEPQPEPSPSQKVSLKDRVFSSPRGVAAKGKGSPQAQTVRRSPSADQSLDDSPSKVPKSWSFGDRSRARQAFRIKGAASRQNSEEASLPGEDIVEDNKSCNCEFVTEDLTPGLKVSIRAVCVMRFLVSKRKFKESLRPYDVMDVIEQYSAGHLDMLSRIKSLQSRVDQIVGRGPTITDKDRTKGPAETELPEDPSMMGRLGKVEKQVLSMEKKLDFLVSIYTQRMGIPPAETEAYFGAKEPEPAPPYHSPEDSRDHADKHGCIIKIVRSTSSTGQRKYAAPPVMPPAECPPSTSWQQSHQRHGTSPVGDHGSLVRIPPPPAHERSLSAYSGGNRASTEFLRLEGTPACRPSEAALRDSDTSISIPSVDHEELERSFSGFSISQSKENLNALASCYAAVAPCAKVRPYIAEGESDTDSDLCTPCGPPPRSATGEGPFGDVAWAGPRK
KCNQ2 enhance baseline: recorded beside KCNQ2 enhance, whose call it bears; B-score; compound at 10 µM; measured here: initial fluorescence intensity artifact check;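 brightness before thallium and not channel activity; 0 = typical well and far values either way flag optical interference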
Numbers without * were called inactive; / = not tested or not shown. Some of the compounds tested (hit frequency here may not be typical).

Below each compound: KCNQ2 enhance	KCNQ2 enhance baseline
1. CCOc1ccc2ccccc2c1/C=N/n1cncn1
  0.31	0.3
2. O=C(Nc1ccc(-c2nc3ccccc3[nH]2)cc1)c1ccco1
  0.24	-0.01
3. COc1ccc(NC(=O)c2cc3c(Cl)nc4ccccc4c3s2)cc1OC
  1.2	-1.8
4. Cc1csc(NC(=O)c2nc3nc(C)cc(C)n3n2)n1
  1.6	-0.69
5. O=C(O)CSC1c2ccccc2C(=O)N1Cc1ccccc1 (stereo not given)
  0.15	3
6. CC12CCC(C(=O)NCC3CCCO3)(OC1=O)C2(C)C (stereo not given)
  0.24	1.2
7. O=c1c([N+](=O)[O-])c(N2CCOCC2)c2ccccc2n1-c1ccccc1
  1.1	2.1
8. COC(=O)C(Cc1ccccc1)NC(=O)CNC(=O)c1ccccc1OC (stereo not given)
  0.49	1.3
9. O=C(COc1ccc(Cl)cc1)NCCN1CCCC1
  0.08	-0.03
10. COc1cc(NS(=O)(=O)c2ccc(NC(=S)NC(=O)/C=C/c3ccc(F)cc3)cc2)ncn1
  0.53	0.41
11. Cc1ccc(/C([O-])=C(/C(=S)Nc2ccc(SC(F)F)cc2)[n+]2ccccc2)cc1[N+](=O)[O-]
  0.74	0.05
12. CC(C)OC(=O)CSc1nnc(-c2ccncc2)n1N
  0.1	0.12
13. O=c1c2ccccc2cnn1-c1ccc2ccccc2c1
  0.89	-0.85
14. Cc1cc(-c2cc(C(=O)O)c3ccccc3n2)c(C)s1
  0.04	-0.92
15. CC1(C)CC(NC(=O)c2ccc(Cl)c(Cl)c2)CC(C)(C)N1
  0.73	-0.27
16. Cc1[nH]c2ccccc2c1C(=O)CN1C(=O)C(=O)N(Cc2ccco2)C1=O
  0.16	-1.8
17. CCC(=O)Nc1c(C)nn(C(=O)CC)c1C
  0.17	0.18
18. CC1(C)CC(=O)C=C(C(=O)N2CCCC(CCC(=O)NCc3ccccc3F)C2)O1 (stereo not given)
  1.4	0.05
19. NC(=O)c1c(N)sc(=S)n1CC1CCCO1 (stereo not given)
  0.98	0.36
20. CSc1nc2cc(S(=O)(=O)N3CCOCC3)ccc2s1
  0.33	-1.5

Screen by screen, quoted from above.
Entries 2–9 in KCNQ2 enhance read 0.24, 1.2, 1.6, 0.15, 0.24, 1.1, 0.49, 0.08

Another view of part of the listing above:
[12] CC(C)OC(=O)CSc1nnc(-c2ccncc2)n1N
[13] O=c1c2ccccc2cnn1-c1ccc2ccccc2c1
[14] Cc1cc(-c2cc(C(=O)O)c3ccccc3n2)c(C)s1
assay / compound | 12 | 13 | 14
KCNQ2 enhance | 0.1 | 0.89 | 0.04
KCNQ2 enhance baseline | 0.12 | -0.85 | -0.92

The results go on:
Below each compound: KCNQ2 enhance	KCNQ2 enhance baseline
21. CC(C)(C)c1ccccc1NC(=O)C1=COCCO1
  0.97	-0.57
22. CCCCCn1c(=NC(=O)c2ccco2)c(C(=O)OCC)cc2c(=O)n3ccccc3nc21
  0.38	-1.2
23. CCOC(=O)C1=C(C)NC(C)=C(C(=O)OCC)C1
  1.6	/
24. COc1ccc(CC(=O)O/N=C(\N)c2cccc([N+](=O)[O-])c2)cc1
  1.5	-0.05
25. Cc1ccc2cc(C(=O)O)c(C)nc2c1
  1.1	0.48
26. O=C(O)C1OC(Oc2c(-c3ccc(O)c(O)c3)oc3cc(O)cc(O)c3c2=O)C(O)C(O)C1O (stereo not given)
  0.72	-0.54
27. COC(=O)c1ccc2c(c1)N(C)S(=O)(=O)c1cnc(SCC(=O)C(C)(C)C)nc1-2
  1.5	-2.4
28. Cn1ccnc1C(O)(c1nnc(-c2ccccc2)o1)C(F)(F)F (stereo not given)
  0.58	1.4
29. O=C(Nc1ccccc1)N1CCSc2cc(Cl)ccc21
  1.1	1.7
30. O=C(NC(=O)c1ccccc1)Nc1ccc(Cl)cn1
  0.32	-0.41
31. COC(=O)c1ccc(C)c(NC(=S)NCc2ccc(Cl)cc2)c1
  0.41	-0.51
32. CC(CN1CCCCC1)c1ccccc1 (stereo not given)
  2	0.22
33. CC1CCN(C(=O)CNC(=O)CNS(=O)(=O)c2ccccc2)CC1
  1.5	-1.6
34. CCc1ccc(NC(=O)N2CCN(c3ccc(F)cc3)CC2)cc1
  0.71	-1
35. COc1cccc(NC(=O)CN(C)S(=O)(=O)c2ccc3c(c2)n(C)c(=O)c(=O)n3C)c1
  0.96	0.84
36. Cc1ccc(C(NC(N)=O)c2ccccc2C)cc1 (stereo not given)
  0.63	0.69
37. COC(=O)c1ccc(Sc2ccccc2NS(=O)(=O)c2ccc(NC(C)=O)cc2)nc1
  0.42	-0.11
38. CC(C)C[C@H]1COCCS(=O)(=O)N1Cc1cccc(F)c1
  1.2	0.93
39. Cc1cccc(C)c1NC(=O)CN(C)C(=O)c1cccc(-n2cccc2)c1
  0.66	-1.7
40. COc1ccc(C(=O)Nc2ccc(Cl)cc2C(=O)NCc2ccco2)cc1
  1.3	-0.1

Below each compound: KCNQ2 enhance	KCNQ2 enhance baseline
41. CCOc1ccc(CCNC(=O)c2cccc3c2C(=O)N(CCOC)C3)cc1OCC
  1.2	-1.9
42. CCCCCCC1/C(=N\NC(=O)c2ccccc2)CCC1C(=O)OC (stereo not given)
  0.6	0.06
43. CC(C)C(=O)NCCc1nc(-c2ccccc2)no1
  0.42	1.1
44. COc1ccc(NC(=O)CSc2nnc(-c3cccnc3)o2)cc1
  1.3	-0.2
45. CCOCc1[nH]c(=S)[nH]c(=O)c1Cc1ccc(OCC)cc1
  1.4	0.21
46. Cc1ccccc1OCCC(=O)OCC(=O)NC1CC1
  0.27	-0.52
47. Cc1cc([N+](=O)[O-])ccc1NC(=O)c1csc(C)c1C
  0.94	-0.76
48. N#CCN(CC#N)C(=O)C1c2ccccc2Oc2ccccc21
  0.35	-1.1
49. CCOc1cc(NC(=O)c2cccs2)c(OCC)cc1NC(=O)c1ccccn1
  0.02	-0.04
50. COc1ccc(-c2c(C)n([O-])c3c([n+]2=O)CCCCC3)cc1
  2.1	-0.68
51. O=C(N/N=C/c1sc(N2CCCCC2)nc1-c1cccs1)C1CC1
  0.37	0.34
52. Cc1ccc(S(=O)(=O)Oc2ccccc2/C=N/Nc2ccc(C(=O)O)cc2)cc1
  0.21	-2.1
53. O=Cc1cnc(N2CCN(c3ccccc3)CC2)s1
  0.54	0.54
54. COCCN1C(=O)N(c2ccc(OC)cc2)C(=O)C1CC(=O)Nc1cccc(F)c1 (stereo not given)
  2.1	0.9
55. Cn1c(=O)c(C(=O)CN2CCCCCC2)c(N)n(Cc2ccccc2)c1=O
  0.02	-0.05
56. C=C(C)C(=O)N1CC2(CC(c3cccc(NC(=O)/C=C\C)c3)=NO2)C[C@H]1C(N)=O (stereo not given in full)
  0.02	0.17
57. CCCCNC(=O)COC(=O)c1cc(Br)ccc1Cl
  0.37	1.3
58. Cc1cc(C)n(CC(C)O)c(=O)c1C#N (stereo not given)
  0.03	0.82
59. c1nc(N2CCC3(CC2)OCCO3)c2[nH]cnc2n1
  0.95	2.4
60. O=C(COC(=O)c1cc(-c2cccs2)nc2ccccc12)NC1CCS(=O)(=O)C1 (stereo not given)
  1.4	-2

Below each compound: KCNQ2 enhance	KCNQ2 enhance baseline
61. COc1ccc(Nc2nnc(Cc3ccccc3)c(=O)[nH]2)c(OC)c1
  3.8	-1.4
62. COC(=O)CN1C(=O)NC2(CCCc3ccccc32)C1=O (stereo not given)
  0.65	-0.01
63. O=S(=O)(Nc1ccc(-c2ccc3nncn3n2)cc1)c1ccccc1F
  1.4	-2
64. COc1cc(CO)cc(-c2cc(CO)cc(OC)c2OC)c1OC
  1.4	0.74
65. COc1ccc(NC(=O)NCCc2ccc(Cl)cc2)cc1OC
  0.7	-0.29
66. CCOc1ccc(-c2csc(NC(=O)c3ccc(S(=O)(=O)N4CCc5ccccc5C4)cc3)n2)cc1
  1.8	1.2
67. COc1ccc(C(CNC(=O)c2cccc(NS(=O)(=O)c3ccccc3)c2)N(C)C)cc1 (stereo not given)
  0.22	0.61
68. CC1=Nn2c(nnc2-c2cc(-c3ccccc3)n[nH]2)SC1
  0.64	-0.15
69. N#Cc1ccccc1S(=O)(=O)N1CCN(C(=O)c2cc(-c3ccccc3)nn2-c2ccccc2)CC1
  0.7	-0.1
70. COc1cc(C2C(C(C)=O)=C(C)Nc3ncnn32)ccc1O (stereo not given)
  1.7	-0.73
71. CN(C)/C(=N\S(=O)(=O)c1ccccc1)c1ccc([N+](=O)[O-])cc1
  0.45	1.4
72. COc1ccc(NC(=O)COC(=O)c2c(F)cccc2Cl)cc1OC
  0.06	1.6
73. CCOC(=O)C1CCN(C(=O)COC(=O)Cc2ccc(Cl)cc2)CC1
  0.04	0.22
74. CCN(CC)S(=O)(=O)c1ccc(Br)c(OC)c1
  1.1	0.67
75. COc1cc(C(=O)N2CCN(c3cc(Cl)ccc3Cl)CC2)cc(OC)c1OC
  0.14	-0.49
76. O=C(CSc1nnc(-c2ccncc2)n1-c1ccccc1)NC1CC1
  0.93	-0.02
77. O=C(Oc1c(CN2CCOCC2)cc(Cl)c2cccnc12)c1ccc(F)cc1
  0.04	0.47
78. CC(C)(C)c1ccc(S(=O)(=O)N2CCN(c3ncccn3)CC2)cc1
  0.25	0.45
79. COC(=O)N/N=C/c1cc(C)n(-c2cccc3ccccc23)c1C
  0.31	2.1
80. COc1ccc2nc(C)cc(Nc3cccc(C(=O)O)c3)c2c1
  1.7	-2

Below each compound: KCNQ2 enhance	KCNQ2 enhance baseline
81. Cn1c(Cn2c(=O)sc3ccccc32)nnc1SCC(=O)NCc1ccco1
  0.05	-0.23
82. O=[N+]([O-])c1ccc(Sc2ccccn2)nc1
  1.1	0.17
83. CC(O)c1c(OCc2ccccc2)ncnc1OCc1ccccc1 (stereo not given)
  0.01	1.1
84. COc1ccccc1N(CC(=O)NCc1ccccc1)C(=O)CCC(=O)Nc1nccs1
  0.72	1.3
85. O=C(NNc1ncccc1Cl)c1c(Cl)cccc1Cl
  0.12	-0.39
86. CCN(CC)C(=O)CSc1nc(N)c2c3c(sc2n1)CC(C)CC3 (stereo not given)
  1.4	-0.52
87. CCc1ccc(CN(C)C(=O)CCc2nnc(Cc3cccc(C)c3)o2)nc1
  0.13	-1.4
88. CCc1nnc(NC(=O)CCC(=O)NCCc2ccccc2)s1
  2.4	0.04
89. CCCN(CCC)CCNC(=O)C1(O)c2ccccc2NC(=O)N1c1cccc(OC)c1 (stereo not given)
  0.07	1.8
90. CCNc1nc(-c2cc(C)n(Cc3ccco3)c2C)cs1
  0.06	2.6
91. COc1cc(NC(=O)c2cccc([N+](=O)[O-])c2)ccc1NC(=O)c1ccco1
  0.4	0.52
92. O=C(Nc1nnc(-c2ccc3c(c2)CCCC3)o1)c1ccccc1
  7.1*	-1*
93. O=C(Nc1ccc(N2CCN(C(=O)c3ccc(Cl)cc3)CC2)cc1)c1ccc([N+](=O)[O-])o1
  0.01	-1.2
94. COc1ccccc1C(=O)NNC(=O)c1ccc(Br)cc1
  0.53	1
95. Cc1ccc(OCC(=O)NCc2ccc3c(c2)OCO3)c([N+](=O)[O-])n1
  2.3	-4.9
96. O=c1[nH]cc(S(=O)(=O)NCc2ccccc2)c(=O)[nH]1
  0.04	-0.31
97. CC(=O)c1cccc(NC(=O)c2cnn(-c3ccccc3)c2C)c1
  3.9	-1.1
98. CCOc1ccc(N2CC(O)(c3cccs3)[N+]3=C2CCCC3)cc1 (stereo not given)
  1.2	0.93
99. Cc1cccc(Cn2c(O)c(N=NC(=S)Nc3ccccc3F)c3ccccc32)c1
  0.03	-0.84
100. Cc1ccc(C(=O)NN2C(=O)C3C4C=CC(C4)[C@@H]3C2=O)cc1 (stereo not given in full)
  0.05	-0.77

In the list so far, these have a cyano group:
Below each compound: KCNQ2 enhance	KCNQ2 enhance baseline
48. N#CCN(CC#N)C(=O)C1c2ccccc2Oc2ccccc21
  0.35	-1.1
58. Cc1cc(C)n(CC(C)O)c(=O)c1C#N (stereo not given)
  0.03	0.82
69. N#Cc1ccccc1S(=O)(=O)N1CCN(C(=O)c2cc(-c3ccccc3)nn2-c2ccccc2)CC1
  0.7	-0.1

Next records follow:
Below each compound: KCNQ2 enhance	KCNQ2 enhance baseline
101. CCC(C)[C@H](NC(=O)NCc1ccccc1Cl)C(=O)O (stereo not given in full)
  0.97	0.23
102. O=C(O)COc1ccc(/C=C/c2nc3ccc([N+](=O)[O-])cc3s2)cc1
  1.9	-0.03
103. O=C(CCC(=O)OCCCC(F)(F)C(F)(F)F)Nc1ccccc1
  0.36	0.16
104. COc1ccc(C(=O)Nc2cccc(NC(C)=O)c2)cc1OC
  1.6	0.7
105. Cn1c(C(=O)O)cc2cc(F)ccc21
  1.4	-0.88
106. CC(O)CSc1nc2c(c(=O)n(C)c(=O)n2C)n1CCCc1ccccc1 (stereo not given)
  1.7	0.61
107. CCOC(=O)c1ccc(N2C(=O)CC(N3CCN(Cc4ccccc4)CC3)C2=O)cc1 (stereo not given)
  0.13	-0.38
108. O=C(NCCCN1CCC(Cc2ccccc2)CC1)C1CCC(=O)N1C1CCCC1 (stereo not given)
  0.59	-1.3
109. Clc1ccc2nc(CSc3nc4ccccc4o3)cn2c1
  0.19	0.03
110. COC(=O)Nc1ccc(SCC(=O)c2ccccc2)cc1
  1.1	1.2
111. Cc1ccc(NC(=O)c2cc(-c3ccccc3O)n[nH]2)cc1C
  0.88	-1
112. CCOC(=O)C1CCN(CCC(=O)Nc2cccc(Cl)c2C)CC1
  1.1	1
113. Cc1cc(OCC(=O)N2CCCCCC2)ccc1[N+](=O)[O-]
  0.35	-0.64
114. CCSc1nnc(NC(=O)CSc2nc(CC)nc3c2c(=O)n(C)c(=O)n3C)s1
  1.5	2
115. O=C(CN1CCCc2ccccc21)NC(=O)NCc1ccco1
  0.32	1.1
116. COc1ccc(Cl)cc1NC(=O)CSc1nc2ccsc2c(=O)n1CC1CCC(C(=O)O)CC1 (stereo not given)
  0.27	0.28
117. COC(=O)c1ccc(S(=O)(=O)N2CCN(C)CC2)n1C
  0.27	0.36
